Bioassay records (PubChem)
HIV TAR-Tat: HIV-1 TAR-Tat binding disruption; HIV-1 TAR RNA, Tat peptide displacement FRET; hits give high values; hit rate 0.6% among 100,000; z-score (concentration not given with the values);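 also: score is relative to mean and SD of negative controls; some compounds called inactive have numbers as strong as hits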
CDC25B-CDK2 inh: human CDC25B-CDK2/CyclinA binding inhibition; P30305+P24941; HTRF CDC25B-CDK2/CyclinA binding, anti-His/anti-Flag; hits give high values; z-score (concentration not given with the values); hit rate 0.72% among 94,000; AID 1259370;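 also: score is relative to mean and SD of negative controls; strong numbers were not always called active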
An asterisk follows results filed as active; x = not tested or not shown.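 The calls were made as follows: active = z-score from 3 up in half or more of its runs; inactive = the rest.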

Values run as follows: HIV TAR-Tat | CDC25B-CDK2 inh
1	OC(CNC1Cc2ccccc2C1)COc1ccc(F)cc1 (configuration not stated)
    x | -2.6
2	CN(C)CCCN(C(=O)CCOc1ccccc1)c1nc2ccc(Br)cc2s1
    -0.05 | x
3	c1ccc(-c2nc3c4ccccc4nc(N4CCCC4)n3n2)cc1
    x | -3.1
4	Cn1nc(C(=O)Nc2nc3ccccc3s2)c2c1-c1ccccc1OC2
    1.3 | -1.1
5	COC(=O)c1cc(S(=O)(=O)Nc2cccc(SC)c2)cn1C
    1 | 0.85
6	O=C(O)C1C2C=CC3(CN(c4ccccc4)C(=O)C13)O2 (configuration not stated)
    1.6 | -0.75
7	N#Cc1cccc(S(=O)(=O)n2nc(-c3ccccc3)cc2N)c1
    x | -0.96
8	Cc1csc(NC(=O)Cc2csc(-n3nc(C)cc3C)n2)n1
    -2.4 | -1.2
9	COCCNC(=O)Cc1sc(C)nc1-c1cccs1
    -0.81 | -0.39
10	COCCCNC(=O)N1c2ccccc2Sc2ccccc21
    1.6 | -0.48
11	O=C(NC1CCCC1)c1ccc2cn[nH]c2c1
    -2.2 | x
12	COC(=O)c1noc(C)c1-c1ccnn1C(=O)c1ccc(Cl)cc1
    x | -2.6
13	CSc1nc(C)cc(-n2ccc(=O)[nH]c2=O)n1
    -0.26 | -0.23
14	CS(=O)(=O)c1ccc2nc(NC(=O)c3nn(-c4ccccc4)ccc3=O)sc2c1
    -2.6 | -0.42
15	CCOc1cccc(C2c3c(oc4ccc(F)cc4c3=O)C(=O)N2Cc2ccc3c(c2)OCO3)c1 (configuration not stated)
    -0.05 | 0.4
16	COC(=O)c1sc2cccc(F)c2c1S(=O)(=O)Nc1ccc(OC)c(Cl)c1
    0.12 | x
17	CC(C)C(C)/C=C/C(C)[C@H]1CCC2C3=CCC4CC(=O)CC[C@]4(C)C3CC[C@@]21C (some centres not stated)
    1.1 | x
18	CCCCCN1C=NS(=O)(=O)c2ccccc21
    0.85 | x
19	CCn1c2ccccc2c2cc(NC(=O)Cn3ncc4c(=O)oc5ccccc5c43)ccc21
    1.5 | 0.56
20	CCCC(=O)Nc1nnc(SCc2cc(=O)n3oc(C)cc3n2)s1
    -0.2 | x

Entries by screen from the list.
Compounds 3 to 11 in HIV TAR-Tat read x, 1.3, 1, 1.6, x, -2.4, -0.81, 1.6, -2.2

Remaining list, next part
Values run as follows: HIV TAR-Tat | CDC25B-CDK2 inh
21	O=C(c1ccc(Br)o1)N1CCN(c2ccc3nnc(-c4ccccc4)n3n2)CC1
    x | -0.23
22	O=C(CCn1c(=O)[nH]c2ccccc2c1=O)NCCc1c[nH]c2ccccc12
    x | 0.05
23	Cc1cc(C)c(S(=O)(=O)N2CC(C)CC(C)C2)c(C)c1 (configuration not stated)
    -1.1 | -1.1
24	O=C1CNC(=S)N1CCc1ccc(O)c(O)c1
    x | -1.9
25	Cn1cccc1Cc1nnc(SCC(=O)N2CCCC2)n1-c1ccc(F)cc1
    -1.7 | -0.85
26	Cc1onc(-c2ccccc2)c1C(=O)Nc1sc2c(c1C#N)CCC(C)C2 (configuration not stated)
    -0.32 | -1.1
27	Cc1nn(CC(=O)NCCCN2CCc3ccccc3C2)c(=O)c2cc3sccc3n12
    1.6 | -1.1
28	COc1cc(C2C(C(=O)OC(C)C)=C(C)NC3=C2C(=O)CCC3)cc(Br)c1O (configuration not stated)
    0.26 | -0.27
29	Fc1ccccc1-c1noc(NCCN2CCOCC2)n1
    1.2 | x
30	Cc1cc(C)c(C)c(S(=O)(=O)Nc2cc3c(cc2N2CCOCC2)n(C)c(=O)n3C)c1
    1.5 | x
31	O=C(CSc1nc2ncccc2o1)Nc1ccc(S(=O)(=O)Nc2ccc(F)cc2)cc1
    -1.2 | x
32	COC(=O)C1=C(C)Nc2nnnn2C1c1ccc(F)cc1 (configuration not stated)
    -1.7 | -0.51
33	CCOC(=O)C1=C(C)NC2=C(C(=O)CC(C)(C)C2)C1c1cccc(F)c1 (configuration not stated)
    2.4 | 0.76
34	CCCCN(CC)C(=O)c1cc2ccc3cccnc3c2[nH]1
    1.3 | x
35	Cc1ccnc(SCC2=NN(c3nc(C)cc(C)n3)C(=O)C2)n1
    0.62 | -1.5
36	O=C(NCCN1CCOCC1)c1cnc2sc(N3CCCCC3)nn2c1=O
    -0.37 | x
37	Cn1c(=O)n(CCc2ccccc2)c(=O)c2c3c(sc21)COC(C)(C)C3
    2.9 | -1.2
38	O=C(NC(=O)c1csnn1)Nc1ncccn1
    x | -1.4
39	c1ccc(Nc2cc(-c3ccccc3)[nH]n2)cc1
    1.5 | -1.1
40	COC(=O)C1=C(C)NC(=S)NC1c1ccc(C(=O)O)cc1 (configuration not stated)
    x | -0.06

Continuation:
Values run as follows: HIV TAR-Tat | CDC25B-CDK2 inh
41	Cc1ccc(C(=O)CSc2nccn(-c3ccc(Cl)cc3)c2=O)cc1
    -0.31 | x
42	Cc1c(NC(=O)CCc2nc(-c3ccco3)no2)c(=O)n(-c2ccccc2)n1C
    0.82 | -1.4
43	Cc1ccc(NC(=O)NCc2noc3ccc(C)cc23)c(Br)c1
    0.92 | x
44	CCC(C)OC(=O)COc1ccc2c(=O)c(Oc3ccc(OC)cc3)coc2c1 (configuration not stated)
    0.56 | -0.24
45	CCOC(=O)C1=C(C)OC(N)=C(C#N)C1c1cccc(C(F)(F)F)c1 (configuration not stated)
    x | -1
46	COc1ccc(Cl)cc1-c1n[nH]c(=S)o1
    x | -4.4
47	Cc1nc(-c2csc(S(=O)(=O)Nc3ccc(F)cc3C)c2)no1
    2.1 | x
48	CC(C)(C)OC(=O)N1CCC(CNS(=O)(=O)c2cccc(C(F)(F)F)c2)CC1
    x | -1.4
49	CCCN1C(=O)c2oc3cc(C)cc(C)c3c(=O)c2C1c1ccc(F)cc1 (configuration not stated)
    -0.14 | -3.3
50	Cc1ccc(CN(C(=O)c2cc(-c3ccc(C)cc3)on2)C2CCS(=O)(=O)C2)cc1 (configuration not stated)
    2.4 | -1.7
51	Clc1ccccc1-c1nnc(-c2cccs2)o1
    0.78 | -0.79
52	CCc1ccccc1NC(=O)C(CC)Sc1nnc(CC)n2c1cc1occc12 (configuration not stated)
    -3 | x
53	Cc1ccc(N2C(=O)N(Cc3ccc(F)cc3)C3CS(=O)(=O)CC32)cc1 (configuration not stated)
    1.3 | 0.48
54	CCOCCCN1C(=O)c2ccc(-c3ccco3)n2CC1(C)C(=O)NC1CCCC1 (configuration not stated)
    1.9 | x
55	COc1ccc(/C(O)=C2\C(=O)C(=O)N(CCCN3CCOCC3)C2c2ccc(F)cc2)cc1 (configuration not stated)
    1.9 | -1.1
56	Cc1ccc(CCNS(=O)(=O)c2c(C)nc3sccn3c2=O)cc1
    1.6 | -1.4
57	Cc1ccc2c(c1)N(C(=O)Nc1ccc(Br)cc1)CC(C)O2 (configuration not stated)
    3 | x
58	O=c1c(O)cccc2c([C@H]3Oc4cc(O)cc(O)c4C[C@H]3O)cc(O)c(O)c12
    12* | x
59	CCN(CC)CCN(C(=O)CN1C(=O)CCC1=O)c1nc2cc3c(cc2s1)OCCO3
    1.5 | x
60	COC(=O)c1c(C)sc(-c2c(-c3ccc(Cl)cc3)[nH]c3c2c(=O)n(C)c(=O)n3C)c1O
    -0.07 | -0.53

2 entries drawn at random from those above:
Values run as follows: HIV TAR-Tat | CDC25B-CDK2 inh
48	CC(C)(C)OC(=O)N1CCC(CNS(=O)(=O)c2cccc(C(F)(F)F)c2)CC1
    x | -1.4
27	Cc1nn(CC(=O)NCCCN2CCc3ccccc3C2)c(=O)c2cc3sccc3n12
    1.6 | -1.1

The listing continues:
Values run as follows: HIV TAR-Tat | CDC25B-CDK2 inh
61	c1coc(-c2nnc(Nc3nc4cc5c(cc4s3)OCO5)o2)c1
    x | 1.2
62	CCc1cc2c(cc3n2CC(C)(C(=O)NC2CCC(C)CC2)N(CCCOC)C3=O)s1 (configuration not stated)
    1.7 | -1.1
63	CC(C)(C)Nc1nc(Cl)nc(Oc2ccc(=O)n(-c3ccccc3)n2)n1
    -2 | 0.06
64	O=C1ON=C(c2ccccc2)/C1=C/c1ccc2c(c1)OCO2
    x | 0.1
65	CCc1nc2nc(C)c(NS(=O)(=O)c3ccc(C(C)(C)C)cc3)c(=O)n2[nH]1
    -0.22 | -1.8
66	Cc1ccc(CNc2c(C)c(C)nc3nncn23)cc1
    2.2 | -2
67	Cc1ccc2c(c1)c1c(n2CC(O)CN2CCC(C)CC2)CCCC1 (configuration not stated)
    x | 0.05
68	Cc1[nH]c2c(C)cccc2c(=O)c1CN(C)Cc1ccccc1
    1.9 | -3.9
69	CC(C)c1nc2sc3c(NCCCO)ncnc3c2c2c1COC(C)(C)C2
    1.6 | -1.9
70	Nc1cccc(Nc2ncnc3ccccc23)c1
    x | -0.54
71	O=C1CSC2(CCCCC2)N1
    x | 0.22
72	CCN(CC)S(=O)(=O)c1ccc2c(c1)NC(=O)CC(C)S2 (configuration not stated)
    1.8 | x
73	CN(Cc1ccco1)C(=O)CSc1ncnc2c1sc1cccc(F)c12
    -1.4 | x
74	CCOC(=O)C(N)CSC1CC(=O)N(c2ccc(OC)cc2)C1=O (configuration not stated)
    1.1 | -0.58
75	Cc1ccc(C(Nc2ccccn2)c2ccc3cccnc3c2O)s1 (configuration not stated)
    x | -3
76	CC1(C)Cc2ccccc2-c2[nH]c(=S)[nH]c(=O)c21
    x | -1.7
77	CCc1ccc(-c2cc(C)no2)cc1S(=O)(=O)Nc1ccccn1
    0.79 | x
78	COc1ccc(CNc2nccs2)cc1OC
    0.7 | -0.2
79	COc1ccc(Nc2ncc3c(n2)CC(C)CC3=O)cc1 (configuration not stated)
    0.23 | -0.43
80	O=S(=O)(NC1CCCCC1N1CCN(c2ccc(F)cc2)CC1)c1ccc(Cl)cc1 (configuration not stated)
    2.3 | -1.7

Later entries.
Values run as follows: HIV TAR-Tat | CDC25B-CDK2 inh
81	Cc1c(C(=O)OCC2CCCO2)[nH]c2c1C(=O)CC(c1cccs1)C2 (configuration not stated)
    x | -0.89
82	CCc1cc(Nc2ccc(OC)cc2OC)n2ncnc2n1
    0.76 | -1.6
83	CCCc1cc(=O)n2nc(N(C)CC(=O)Nc3cc(C)cc(C)c3)sc2n1
    1.6 | 0.26
84	O=C(CSc1ccc(C(F)(F)F)cn1)Nc1ccccc1
    x | -0.42
85	Cc1noc(-c2ccc(C)c(S(=O)(=O)Nc3ccc(F)c(F)c3)c2)n1
    1.6 | x
86	COc1ccccc1-n1c(=O)[nH]c2c(C(N)=O)nc(-c3cccc(OC)c3OC)nc21
    0.47 | x
87	COc1ccc(Cl)cc1N1C(=O)C2CCCN2C1c1ccccc1Cl (configuration not stated)
    -0.47 | 0.24
88	CN(CCCNC(=O)C1CCN(c2nnc(N3CCCCC3=O)s2)CC1)C1CCCCC1
    1.2 | x
89	COCCOC(=O)C1=C(C)NC2=C(C(=O)CCC2)C1c1coc2ccccc2c1=O (configuration not stated)
    -0.2 | 1.2
90	CCCN1C2=NCCCN2c2ccccc21
    1.1 | -0.49
91	CCOc1cc(-c2ccc(OC(=O)c3ccco3)cc2)cc(=O)c2c(C)oc(C)c12
    -2.9 | 0.72
92	O=C(NCc1ccc2c(c1)OCO2)Nc1csc2ccccc12
    x | -5.4
93	COc1ccc(-c2nc(NCc3ccco3)c3ccccc3n2)cc1
    1.4 | x
94	O=S(=O)(Nc1ccccn1)c1ccc2[nH]c3c(c2c1)CCCCC3
    -0.18 | x
95	COc1cc(/C=N/NC(=O)CCc2ccc(O)cc2)cc(OC)c1OC
    x | -0.86
96	CCN(CC)C(=O)Cn1cc(SCC(=O)Nc2ccc3c(c2)OCCO3)c2ccccc21
    0.02 | x
97	Cc1nnc(NC(=O)CSc2nc(=O)n(CCN3CCOCC3)c3c2CCC3)s1
    -0.67 | x
98	CC1CCCC(NC(=O)c2cc(S(=O)(=O)N3CCCC3)cn2C)C1C (configuration not stated)
    1.5 | x
99	Cc1ccnc(NS(=O)(=O)c2ccc(N)cc2)n1
    -0.33 | x
100	CCCCN1CCc2nc(N3CCN(c4ccccn4)CC3)ncc2C1
    0.4 | x

The last 4 compounds of the part before lead into the next.
Values run as follows: HIV TAR-Tat | CDC25B-CDK2 inh
97	Cc1nnc(NC(=O)CSc2nc(=O)n(CCN3CCOCC3)c3c2CCC3)s1
    -0.67 | x
98	CC1CCCC(NC(=O)c2cc(S(=O)(=O)N3CCCC3)cn2C)C1C (configuration not stated)
    1.5 | x
99	Cc1ccnc(NS(=O)(=O)c2ccc(N)cc2)n1
    -0.33 | x
100	CCCCN1CCc2nc(N3CCN(c4ccccn4)CC3)ncc2C1
    0.4 | x
101	CCOC(=O)C(C#N)=NC(=C=N)C#N
    x | -2
102	COc1ccc2c(c1)OCC(Cc1ccc(OC)c(OC)c1)C2=O (configuration not stated)
    14* | x
103	Cc1ccn2c(=O)c(Cc3nnc(SCC(=O)Nc4ccccc4)n3C)c(C)nc2c1
    0.23 | -0.77
104	CC(=O)Nc1nnc(Sc2nc3c(c(=O)n(C)c(=O)n3C)n2C)s1
    0.34 | -1.1
105	CC(C)(C)c1ccc(C2c3c(oc4ccc(F)cc4c3=O)C(=O)N2CCCN2CCOCC2)cc1 (configuration not stated)
    0.07 | x
106	Cn1cccc1Cc1nnc(SCC(=O)Nc2cccc(Cl)c2)n1C
    -0.29 | -2
107	CN(C)c1ccc(CNc2c(-c3ccc4c(c3)CCCC4)c(=O)c2=O)cc1
    -0.55 | x
108	CC1CCN(CCCNS(=O)(=O)c2ccc3c(c2)oc(=O)n3C)CC1
    x | -2.8
109	O=C(CSc1nnc(NC(=O)c2csnn2)s1)c1ccccc1
    -0.41 | -0.66
110	Cc1nn(CC(=O)N2CCCCC2)c(=O)c2nccn12
    0.67 | 1.4

Complete entries from above.
Results for COc1ccc2c(c1)OCC(Cc1ccc(OC)c(OC)c1)C2=O (configuration not stated) : HIV TAR-Tat = 14*; CDC25B-CDK2 inh = x
Results for Cn1cccc1Cc1nnc(SCC(=O)Nc2cccc(Cl)c2)n1C : HIV TAR-Tat = -0.29; CDC25B-CDK2 inh = -2
